# High-throughput results (PubChem BioAssay)
# HPGD block: HPGD (human) dehydrogenase inhibition | P15428 | purified HPGD, NADH fluorescence kinetic, PGE2 substrate | Potency, µM, inactives show at the highest dose activity change, negative = inhibition, hits mostly inhibitors | hit rate 4.3% among 150,000 | AID 894; active = well fitted inhibition curve with a large enough effect (not every such curve was filed as active); inconclusive = small, poorly fitted or top-dose-only effect, or another doubt; inactive = no such curve, though single readings can be large or run the other way;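 note: top concentration of the series not given in the record; plate controls included wells without enzyme; inactives centre near -10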
# Target sequence (P15428 whole entry, looked up): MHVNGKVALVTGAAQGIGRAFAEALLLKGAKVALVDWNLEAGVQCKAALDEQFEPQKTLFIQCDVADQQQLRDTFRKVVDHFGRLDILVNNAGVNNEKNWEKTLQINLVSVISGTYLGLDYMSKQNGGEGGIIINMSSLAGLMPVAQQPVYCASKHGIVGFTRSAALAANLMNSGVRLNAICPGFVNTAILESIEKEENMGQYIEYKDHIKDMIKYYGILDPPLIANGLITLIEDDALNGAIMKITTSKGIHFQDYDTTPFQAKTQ
#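 NADH formation kinetics: reaction with 30 uM PGE2 and 1 mM NAD+ (final), 20 nM enzyme, Tris-HCl pH 8 with Tween 20, after 15 min compound preincubation at room temperature. Fluorescence change, last versus first of five reads.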
# The depositor's hits bear a star; ? = inconclusive; & = joins results of further samples; [ ] = another dose, or the depositor's remark. % is set by controls: 0 for no effect and ±100 for the full control effect; potency is the fitted concentration of half-maximal effect. This is a subset; the hit share may differ from the screen's.
SMILES,HPGD block
COc1ccc(NC(=O)N2CCn3c2nc2ccccc23)cc1,-5%
C=CCOC(=O)C(C#N)c1nc2ccccc2nc1N1CCC(C(=O)OCC)CC1 (centres undefined),-21%
O=[N+]([O-])c1ccc(S(=O)(=O)Cc2ccccc2)c2nonc12,3.2µM*
Cn1c(=O)[nH]c(=O)c2c1nc(N1CCCC1)n2CC(O)COc1ccccc1 (centres undefined),-10%
O=C(O)c1ccccc1SCc1cn2ccccc2n1,-12%
COc1cc2nc(N(C)CCCNC(=O)C3CCCO3)nc(N)c2cc1OC (centres undefined),?
COc1ccccc1NC1=C(N2CCCCC2)C(=O)c2ccccc2C1=O,-4%
Cc1nc2c3ccccc3nc(NNC(=O)CCC(=O)NC(C)C)n2n1,-13%
Cc1nnc(NC(=O)c2ccc3c(c2)C(=O)N(CCC(C)C)C3=O)s1,-6%
Cc1cc(C)cc(NC(=S)NCc2cccnc2)c1,-18%
CC1Cc2cc(-c3csc(NC(=O)Cc4ccccc4)n3)ccc2N1S(C)(=O)=O (centres undefined),-18%
CCNC(=O)CC1SC(=Nc2ccc(Cl)cc2)N(CC)C1=O (centres undefined),-6%
Cc1ccc(C(=O)Nc2cc(Cl)ccc2OC(=O)c2ccc(C)cc2)cc1,-20%
COc1ccc2nc3oc(C(=O)N4CCN(c5ccccc5F)CC4)cc3cc2c1,?
CCCCOc1ncnc2c1[nH]c1ccc(F)cc12,-27%
CCC(C)N(NC(C)=O)c1nc(Cl)nc(NC(C)C)n1 (centres undefined),-5%
Cc1ccc(Nc2nc(COC(=O)COc3ccc(C=O)cc3)cs2)cc1,-5%
Cc1c(C(=O)O)c(=S)sn1CCOc1ccccc1,18µM*
Cc1cccc(NC(=O)C2C3CCC4C(CCC32)C4(Cl)Cl)c1 (centres undefined),-3%
CN=C(NC)SC1CC(=O)N(c2ccccc2)C1=O (centres undefined),4%
CCOC(=O)c1ccc(NC(=O)Cn2cccc2)cc1,-24%
Cc1ccc(C(=O)NNC(=O)CSc2nnc(-c3ccncc3)n2-c2ccc(C)cc2)cc1,-13%
O=C(NCc1ccco1)C(c1ccccc1F)N(Cc1cccnc1)C(=O)Cn1nnc2ccccc21 (centres undefined),-10%
COc1ccc(NC(=O)c2ccc(Br)o2)c([N+](=O)[O-])c1,-20%
Cc1ccc(C2CC(=O)Nc3cc4c(cc32)OCCO4)s1 (centres undefined),-8%
# Additional compounds follow:
SMILES,HPGD block
Cc1nc2ncc(Br)cc2[nH]1,-8%
Nc1ccc(-c2cc(-c3cccc(N)c3)nc(-c3ccccc3)n2)cc1,60%[activator]
CC1(C)Cc2c(sc3nc4n(c(=N)c23)CCCCC4)CO1,-7%
CCOC(=O)C(NCc1ccccn1)(NC(=O)c1cccnc1)C(F)(F)F (centres undefined),-6%
O=C(Nc1cccc(C(=O)Nc2ccc(S(=O)(=O)O)c3cc(S(=O)(=O)O)cc(S(=O)(=O)O)c23)c1)Nc1cccc(C(=O)Nc2ccc(S(=O)(=O)O)c3cc(S(=O)(=O)O)cc(S(=O)(=O)O)c23)c1,-19%&-9%
Cc1ccc(Cn2c(N)c(S(=O)(=O)c3cccs3)c3nc4ccccc4nc32)cc1,?
COc1ccc(/C=N/NC(=O)CNc2n[nH]c(=O)[nH]c2=O)cc1OC,-14%
Cc1ccc2c3c1C1(C(=O)N3C(C)(C)CC2C)C(C#N)=C(N)Oc2cc(O)ccc21 (centres undefined),3%
O=C(CSc1n[nH]c(-c2ccccc2O)n1)N1CCCc2ccccc21,10µM*
Cc1ccc(Oc2nc(C(F)(F)F)nc3ccccc23)cc1,-6%
CCCNC(=O)CN(Cc1ccccc1F)S(=O)(=O)c1ccc(C)cc1,0%
Cc1ccc(C(=O)CNc2nc3c(c(=O)[nH]c(=O)n3C)n2Cc2ccccc2)cc1,-25%
CC(CNC(=O)c1ccc(Br)o1)NC(=O)c1ccc(Br)o1 (centres undefined),-9%
CCc1ccc(NC(=O)CSc2nnc(COc3ccc4c(c3)CCCC4)o2)cc1,0%
CCOC(=O)c1c(NC(=O)c2c(Br)cnn2CC)sc(C)c1C,-30%
Cc1nc2ccccc2cc1C(=O)N/N=C/c1ccccc1[N+](=O)[O-],-15%
CC(C)NC(=O)[C@@H]1C[C@@]1(C)[C@@H](NC(=O)OCc1ccccc1)c1ccccc1,-6%&-11%
COCCN1C=C(C(=O)OC)C(c2cc3c(cc2Br)OCO3)C(C(=O)OC)=C1,?
C=CCc1ccccc1OCC(O)CNC (centres undefined),-3%
CCOC(=O)C1=C(C)NC(=O)NC1c1c(OCC(=O)N2CCCCC2)ccc2ccccc12 (centres undefined),-11%
Cc1ccc(NC(=S)N=Nc2c(O)n(C)c3ccc(S(=O)(=O)N4CCOCC4)cc23)cc1,-12%
O=C(O)CCC(=O)N1CCCC1C(=O)O (centres undefined),-7%
Cc1ccc(S(=O)(=O)N(C)Cc2ccc(-c3nnco3)cc2)cc1,?
O=C(O)CCCNS(=O)(=O)Cc1ccccc1,-5%
CCn1c(CSCc2ccc(F)cc2)nnc1SCC(=O)N1CCN(c2ccccc2)CC1,-7%

# An excerpt from above in order of SMILES length, low to high.
SMILES,HPGD block
Cc1nc2ncc(Br)cc2[nH]1,-8%
O=C(O)CCC(=O)N1CCCC1C(=O)O (centres undefined),-7%
O=C(O)CCCNS(=O)(=O)Cc1ccccc1,-5%
Cc1ccc(Oc2nc(C(F)(F)F)nc3ccccc23)cc1,-6%
CC1(C)Cc2c(sc3nc4n(c(=N)c23)CCCCC4)CO1,-7%
CC(CNC(=O)c1ccc(Br)o1)NC(=O)c1ccc(Br)o1 (centres undefined),-9%
CCOC(=O)c1c(NC(=O)c2c(Br)cnn2CC)sc(C)c1C,-30%
Cc1ccc(S(=O)(=O)N(C)Cc2ccc(-c3nnco3)cc2)cc1,?
Nc1ccc(-c2cc(-c3cccc(N)c3)nc(-c3ccccc3)n2)cc1,60%[activator]
Cc1nc2ccccc2cc1C(=O)N/N=C/c1ccccc1[N+](=O)[O-],-15%
COc1ccc(/C=N/NC(=O)CNc2n[nH]c(=O)[nH]c2=O)cc1OC,-14%
CCn1c(CSCc2ccc(F)cc2)nnc1SCC(=O)N1CCN(c2ccccc2)CC1,-7%
COCCN1C=C(C(=O)OC)C(c2cc3c(cc2Br)OCO3)C(C(=O)OC)=C1,?
Cc1ccc(C(=O)CNc2nc3c(c(=O)[nH]c(=O)n3C)n2Cc2ccccc2)cc1,-25%
Cc1ccc(NC(=S)N=Nc2c(O)n(C)c3ccc(S(=O)(=O)N4CCOCC4)cc23)cc1,-12%
CC(C)NC(=O)[C@@H]1C[C@@]1(C)[C@@H](NC(=O)OCc1ccccc1)c1ccccc1,-6%&-11%
O=C(Nc1cccc(C(=O)Nc2ccc(S(=O)(=O)O)c3cc(S(=O)(=O)O)cc(S(=O)(=O)O)c23)c1)Nc1cccc(C(=O)Nc2ccc(S(=O)(=O)O)c3cc(S(=O)(=O)O)cc(S(=O)(=O)O)c23)c1,-19%&-9%

# Ordered by the number under HPGD block (high to low): some entries from above
SMILES,HPGD block
C=CCc1ccccc1OCC(O)CNC (centres undefined),-3%
CCOC(=O)C1=C(C)NC(=O)NC1c1c(OCC(=O)N2CCCCC2)ccc2ccccc12 (centres undefined),-11%
Cc1nc2ccccc2cc1C(=O)N/N=C/c1ccccc1[N+](=O)[O-],-15%

# Later entries
SMILES,HPGD block
CC(CN1CCOCC1)OC(=O)COc1ccc(F)cc1 (centres undefined),-9%
FC(F)(F)c1cc(-c2ccco2)nc(NCCc2ccccc2)n1,?
CCOCCCNC(=O)c1c(N)n(-c2ccc(S(N)(=O)=O)cc2)c2nc3ccccc3nc12,?
O=C(Oc1ccc2ccc(OC(=O)N3CCCCCC3)cc2c1)N1CCCCCC1,-9%
O=C(CSc1c[nH]c2ccccc12)N1CCOCC1,-1%
Cc1ccc2nc(N/C(N)=N/S(=O)(=O)c3ccc([N+](=O)[O-])cc3)nc(C)c2c1,-16%
COc1ccc(-n2nnc3c(SCC(=O)Nc4ccc5c(c4)OCCO5)ncnc32)cc1,-18%
Cc1nn(CC(=O)Nc2ccc(C(=O)N3CCCCC3)cc2)c(=O)c2ccccc12,1.1µM*
Clc1ccc(-c2c[n+](Cc3ccc(Cl)c(Cl)c3)c3n2CCC3)cc1,6%
COc1ccc(-c2cc(-c3cccs3)nc(OC)c2C#N)cc1OC,?
CC1(OC(=O)CCc2ccccc2)C(=O)C=C2C=C(c3ccc(C#N)cc3)N(CC3CC3)C=C2C1=O (centres undefined),-7%
COc1ccccc1NC(=O)CSc1nnc(COc2ccc(Cl)cc2)n1Cc1ccco1,?
COc1ccc(C(=O)Cc2ccc(F)cc2)c(OC)c1,-13%
C/C(=N\NC(=S)NCCc1ccccc1)c1cccs1,-26%
Nc1ccccc1SCc1csc(-c2ccc(Cl)cc2)n1,0%
Cc1cc(Nc2cccc(Cl)n2)n(-c2ccccc2)n1,-10%
COc1ccc(OC)c(NC(=O)C2CC(=O)N(c3ccccc3)C2)c1 (centres undefined),-6%
CC(C)c1nccn1CCC(=O)O,-4%
CCOC(=O)c1nn(-c2ccccc2F)c(C)c1C(C)=O,-3%
CC1(C)CC(NC(=O)c2ccccc2Cl)CC(C)(C)N1,-7%
CCCC(=O)Nc1ccccc1NC(=O)c1cc(OC)c(OC)c(OC)c1,-13%
COc1cc2c3c(c1)C1(C(=O)N3C(C)(C)C=C2C)C(C#N)=C(N)Oc2cc(C)oc(=O)c21 (centres undefined),-9%
CC(C)Cc1cc(C(=O)Nc2sc3c(c2C#N)CCC3)no1,?
O=C(c1ccco1)N1CCN(C(=O)C(Cc2ccccc2)NS(=O)(=O)c2cccs2)CC1 (centres undefined),-8%
COc1ccc(/C=N\NC(=O)CCc2c(C)n[nH]c2C)c(OC)c1OC,-5%
# The list goes on.
SMILES,HPGD block
COC(=O)c1cccc(NC(=O)NC2CCCN2S(=O)(=O)c2ccc(Cl)cc2)c1 (centres undefined),-19%
c1ccc(-c2nc(-c3ccccc3)c(Nc3ccc4ccccc4c3)o2)cc1,-5%
O=C(OCC#CCSc1nnc(-c2ccccc2)o1)c1cccs1,16µM*
O=C(Cn1cc([N+](=O)[O-])cn1)NCC1CCCO1 (centres undefined),-12%
Cc1nnc2sc(-c3ccc(-c4ccc(Cl)c(C(F)(F)F)c4)o3)nn12,?
CCN1CCCC1CNC(=O)CCNC(=O)c1cc(OC)c(OC)c(OC)c1 (centres undefined),-6%
CC(C)CC(=O)NC(=S)Nc1nc(-c2cccc3ccccc23)cs1,-16%
COc1cc(/C=N/n2cnnc2)ccc1OCC(=O)N1CCOCC1,?
COC(=O)C[C@](O)(CCCC(C)(C)O)C(=O)O[C@@H]1C(OC)=C[C@]23CCCN2CCc2cc4c(cc2[C@H]13)OCO4,2%
CC1CC(c2ccccc2)n2nc(NC(=O)CCc3ccccc3)nc2N1 (centres undefined),1%
Cc1ccc(C(=O)COC(=O)c2n[nH]c(=O)c3ccccc23)cc1,-10%
CC(=O)c1ccc(NC(=O)CCCN2C(=O)/C(=C/C(C)=C/c3ccccc3)SC2=S)cc1,-8%
CCN1CCc2nc(NC(=O)c3ccc4c(c3)OCCO4)sc2C1,-12%
CC(C)(CNC(=O)c1ccc([N+](=O)[O-])c(Cl)c1)CNC(=O)c1ccc([N+](=O)[O-])c(Cl)c1,-12%
Cc1cc(C)n2nc(SCc3ncc(-c4ccccc4)o3)nc2n1,?
O=C(NC1CCCCC1)N1CCCCCC1,-12%
CCNc1ccc(C(=O)OCC(=O)N2c3ccccc3NC(=O)C2(C)C)cc1[N+](=O)[O-],-14%
CS(=O)(=O)N(CC(=O)N/N=C/c1cccs1)c1cccc(Cl)c1Cl,-10%
COc1cc(Cl)c(C)cc1NC(=O)[C@@H]1CCCN1C(=O)c1cccs1,-5%
Cn1cccc1Cc1nnc(SCC(=O)NC2CCCC2)n1-c1ccc(F)cc1,-14%
COc1ccc(C2C3=C(CCCC3=O)Nc3nc(C(F)(F)F)nn32)c(OC)c1OC (centres undefined),-12%
CCSc1c(-c2ccccc2)nc2c(C)cccc2c1C(=O)O,-12%
COc1ccc(-c2cc(C(F)(F)F)nc(NCc3ccco3)n2)cc1OC,?
CCOc1ccc(-c2nnc(SCC(=O)N3CCOCC3)o2)cc1,-9%
CCCCCCCCCC[Si](C)(C)CCC(=O)NC(Cc1ccc(C)cc1)c1ccccc1 (centres undefined),-7%
# More structures follow:
SMILES,HPGD block
O=C(O)[C@H]1CC=CC[C@@H]1C(=O)Nc1cccc(O)c1,-8%
O=C(OC(C(=O)NC1CCCC1)c1ccccn1)c1cccs1 (centres undefined),-10%
COc1ccc(N2C(N)=C(C#N)C(c3ccsc3)C3=C2CCCC3=O)c(OC)c1 (centres undefined),-6%
COc1cc(OC)cc(C(=O)Nc2ccccc2N2CCOCC2)c1,-9%
CCC(C)(C)n1nnnc1CN(Cc1ccc(Cl)cc1)Cc1ccco1,-13%
S=c1nc(-c2ccccc2)oc2c1CCCC2,?
c1ccc(-c2nnc3n2NC(c2ccc4c(c2)OCO4)S3)cc1 (centres undefined),14µM*
CCN(CC)S(=O)(=O)c1cc(C(=O)NC2=NCCS2)ccc1Cl,-7%
CCCCC(CC)C(=O)NCCCN1CCN(CCCNC(=O)C(CC)CCCC)CC1 (centres undefined),-10%
N/C(=N\OC(=O)c1ccc(Cl)c(Cl)c1)c1cccnc1,-11%
CC1Cc2ccccc2N1C(=O)CSc1nnnn1C1CCCC1 (centres undefined),-18%
CC1(C)C2CCC1(C)C(OC(=O)CSc1nc(N)cc(=O)[nH]1)C2 (centres undefined),-3%
C=CCc1cccc2cc(C(=O)Nc3ccc(F)cc3)c(=O)oc12,-12%
O=C(CCn1c(=O)[nH]c2ccsc2c1=O)Nc1ccc(F)c(F)c1,?
O=C(Nc1nc2ccccc2s1)c1ccc(Cl)s1,-10%
CCOc1cc(/C=N/NC(=O)c2nn(C)cc2Br)ccc1OCc1ccccc1Cl,-29%
CC(=O)N1CCc2cc(S(=O)(=O)Nc3ccccc3N3CCN(C)CC3)ccc21,-10%
CCOC(=O)c1oc2ccccc2c1NC(=O)c1cccs1,-25%
